Bioassay records (PubChem BioAssay)
FGF22 binding = FGF22 (human) thermal shift binding; Q9HCT0; AID 651658; hit rate 1.5% among 340,000; calls only at 9.99 µM; recombinant FGF22 thermal shift, SYPRO orange fluorescence; percent of sucrose octasulfate shift, DMSO zero;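 active means melting point raised past a set limit in the mean and every replicate; three in four hits are not shown here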
Target sequence (Q9HCT0 whole entry, looked up): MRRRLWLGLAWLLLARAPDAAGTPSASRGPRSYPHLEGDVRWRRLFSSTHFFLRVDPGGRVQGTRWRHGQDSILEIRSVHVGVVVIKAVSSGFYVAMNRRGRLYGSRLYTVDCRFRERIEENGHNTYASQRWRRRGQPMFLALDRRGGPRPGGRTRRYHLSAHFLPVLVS
Ecoli rRNA inh = inhibits bacterial ribosomal RNA function over humanized ribosomes | E. coli WT GFP vs humanized-ribosome RFP mutants, fluorescence, 24 h; active compounds read low; DMSO median 0, no signal -100 | GFP signal change (wild-type ribosome), % (test concentration not listed) | hit rate 1.6% among 350,000;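 active means significant combined selectivity score with lowered wild-type GFP, culture density cut under 30%, mutant RFP and density less affected; inactive means any of these conditions unmet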; further: one replicate is shown; some compounds called inactive have numbers as strong as hits
MLL AF4-AF9 inh = inhibitors of human MLL-AF4/AF9 interaction | P42568 | AlphaScreen, biotin-AF4 peptide binding to FLAG-AF9 | inhibition, % at 10 µM | hit rate 0.47% among 350,000 | AID 651704;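 active means every replicate reaching a set inhibition limit, whatever the replicate mean, cut at about 25% in these data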;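 further: 0% = plate neutral control median and 100% = total signal loss; the record names both 10 and 1 µM as test concentration; the first replicate is given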
Target sequence (P42568 whole entry, looked up): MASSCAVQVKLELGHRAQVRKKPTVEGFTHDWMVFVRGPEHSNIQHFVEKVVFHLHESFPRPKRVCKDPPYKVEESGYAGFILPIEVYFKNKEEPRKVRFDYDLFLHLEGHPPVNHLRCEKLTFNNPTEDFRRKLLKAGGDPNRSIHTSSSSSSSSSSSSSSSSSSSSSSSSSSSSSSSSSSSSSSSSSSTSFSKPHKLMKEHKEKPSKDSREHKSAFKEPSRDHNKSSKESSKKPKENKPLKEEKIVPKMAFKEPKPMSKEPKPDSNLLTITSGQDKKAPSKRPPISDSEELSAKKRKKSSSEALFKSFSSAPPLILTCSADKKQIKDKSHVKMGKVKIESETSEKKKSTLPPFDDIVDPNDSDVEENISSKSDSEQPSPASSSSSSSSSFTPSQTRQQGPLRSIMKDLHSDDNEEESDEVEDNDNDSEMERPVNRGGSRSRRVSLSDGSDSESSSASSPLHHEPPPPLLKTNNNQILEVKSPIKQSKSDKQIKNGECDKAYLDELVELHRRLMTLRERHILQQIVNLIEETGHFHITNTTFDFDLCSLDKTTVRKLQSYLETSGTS
Ecoli rRNA inh OD600 = also measured in Ecoli rRNA inh; calls as there; OD600 change, %; measured here: OD600 growth;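 optical density of the mix in the first replicate; 0 = DMSO median and -100 = no signal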
Ecoli rRNA inh RFP = also measured in Ecoli rRNA inh; calls as there; RFP signal change, %; measured here: RFP humanized mutant strains;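 first replicate; 0 = DMSO median and -100 = no signal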
An asterisk follows results filed as active; i = inactive; nt = not tested or not shown; & = joins results of further samples. This is a subset; rates above refer to the full screens.

Preview:
SMILES	FGF22 binding	Ecoli rRNA inh	Ecoli rRNA inh OD600	Ecoli rRNA inh RFP	MLL AF4-AF9 inh
Cc1ccc2nc(C(C)(C)C)c(Cc3cccc(Cl)c3)n2c1	i	-10	-16	-1.6	1.0
O=C(C[C@H]1C[C@@H]2c3cc(NC(=O)c4ccc5c(c4)OCO5)ccc3O[C@@H]2[C@@H](CO)O1)NCc1ccc(Cl)cc1	i	-12	-37	16	2.3
CCCNC(=O)C[C@H]1C[C@H]2c3cc(NC(=O)Nc4ccc(OC)cc4)ccc3O[C@H]2[C@@H](CO)O1	i	4	10	-2.5	-1.2
COc1ccc(-c2cn(CC[C@H]3CC[C@H](NC(=O)CCN4CCCCC4)[C@@H](CO)O3)nn2)cc1	i	1	-2	-1.9	2.2
CCCNC(=O)N1C[C@@H](C)[C@@H](OC)CN(C)C(=O)c2cc(NC(=O)CCC)ccc2OC[C@@H]1C	i	1	-2	0.6	-2.1

The listing (from the top)
SMILES	FGF22 binding	Ecoli rRNA inh	Ecoli rRNA inh OD600	Ecoli rRNA inh RFP	MLL AF4-AF9 inh
Cc1ccc2nc(C(C)(C)C)c(Cc3cccc(Cl)c3)n2c1	i	-10	-16	-1.6	1.0
O=C(C[C@H]1C[C@@H]2c3cc(NC(=O)c4ccc5c(c4)OCO5)ccc3O[C@@H]2[C@@H](CO)O1)NCc1ccc(Cl)cc1	i	-12	-37	16	2.3
CCCNC(=O)C[C@H]1C[C@H]2c3cc(NC(=O)Nc4ccc(OC)cc4)ccc3O[C@H]2[C@@H](CO)O1	i	4	10	-2.5	-1.2
COc1ccc(-c2cn(CC[C@H]3CC[C@H](NC(=O)CCN4CCCCC4)[C@@H](CO)O3)nn2)cc1	i	1	-2	-1.9	2.2
CCCNC(=O)N1C[C@@H](C)[C@@H](OC)CN(C)C(=O)c2cc(NC(=O)CCC)ccc2OC[C@@H]1C	i	1	-2	0.6	-2.1
COc1ccc(-c2cc3nc(C)c(C)c(N4CCN(C(=O)c5ccoc5)CC4)n3n2)cc1	i	-5	-10	-0.4	3.7
COc1ccc2c3c(n(C)c2c1)[C@@H](CO)N(C(=O)C1CCOCC1)CC31CN(C)C1	i	3	8	0.6	-0.4
C[C@H]1CCCCO[C@H](CN(C)C(=O)Nc2ccc3c(c2)OCO3)[C@@H](C)CN([C@@H](C)CO)C(=O)c2cc(N(C)C)ccc2O1	i	-4	-2	-1.2	7.0
CCC(=O)N1C[C@H](C)[C@@H](OC)CN(C)C(=O)c2cc(NC(=O)c3ccc(F)cc3)ccc2OC[C@H]1C	i	0	-1	0.2	2.9
O=C(NN1CCCCC1)NN1CCCCC1	i	11	20	-2.4	-1.6
COc1ccc(S(=O)(=O)Nc2ccc3c(c2)C(=O)N([C@@H](C)CO)C[C@@H](C)[C@H](CN(C)C(=O)Nc2cccc4ccccc24)O3)cc1	i	-10	-14	0.5	-1.1
CCCC#Cc1ccc2c(c1)O[C@@H](CN(C)C(=O)NCCC)[C@H](C)CN([C@@H](C)CO)S2(=O)=O	i	-5	-23	0.3	-0.7
O=C(NCC(F)(F)F)C1C(=O)Nc2ccccc2C(=O)N1C1CCCC1 (stereo not given)	i	29	22	1.3	-2.7
C[C@H]1CN([C@@H](C)CO)C(=O)CCCn2nncc2CO[C@H]1CN(C)Cc1ccc(Oc2ccccc2)cc1	i	-1	-14	7.0	5.5
CCCN1[C@H](C(=O)N(C)C)[C@@H](CO)[C@@H]2Cn3c(ccc(-c4ccc(OC)cc4)c3=O)[C@@H]21	i	-3	-1	-0.4	1.0
CCC(=O)Nc1ccc2c(c1)C(=O)N(C)C[C@@H](OC)[C@H](C)CN(C(=O)Cc1ccccn1)[C@@H](C)CO2	i	0	-6	-0.5	-0.3
Cc1ccc(S(=O)(=O)Nc2ccc3c(c2)C(=O)N([C@@H](C)CO)C[C@H](C)[C@@H](CN(C)S(C)(=O)=O)OCCCC[C@H](C)O3)cc1	i	0	10	-2.5	-0.5
Cc1noc(C)c1NC(=O)N(C)C[C@H]1Oc2c(NS(C)(=O)=O)cccc2C(=O)N([C@@H](C)CO)C[C@@H]1C	i	1	10	-2.2	-13
COc1ccc(C[C@H]2CCn3cc(nn3)COC[C@H](c3ccccc3)NC2=O)cc1	i	-1	-10	-3.9	-3.2
COc1ccccc1-c1cnc(C(O)c2ccc(C)cc2)[nH]1 (stereo not given)	i	3	4	2.2	3.9
CCC(CC)C(C(=O)NCc1ccccc1)N1CCN(c2cccc(C)c2C)CC1 (stereo not given)	i	11	10	4.1	-1.5
Cc1cccc(C)c1NC(=O)CNC(=O)C(C)N(C)CC(=O)Nc1ccc(F)cc1 (stereo not given)	i	2	1	-2.6	-1.1
C[C@H](CO)N1C[C@H](C)[C@@H](CN(C)Cc2cccc(C(=O)O)c2)Oc2ncc(C#C[C@@H](C)O)cc2C1=O	i	4	3	0.3	-5.5
C/C=C/c1cnc2c(c1)C(=O)N([C@@H](C)CO)C[C@@H](C)[C@H](CN(C)C(=O)Nc1ccc(C(F)(F)F)cc1)O2	i	-10	-16	-0.1	1.6
C[C@H](CO)N1C[C@H](C)[C@H](CN(C)C(=O)NC2CCCCC2)OCCCC[C@H](C)Oc2ccc(NC(=O)Cc3ccccc3)cc2C1=O	i	-4	-4	6.2	2.4

Later entries.
SMILES	FGF22 binding	Ecoli rRNA inh	Ecoli rRNA inh OD600	Ecoli rRNA inh RFP	MLL AF4-AF9 inh
C[C@@H]1CN([C@@H](C)CO)C(=O)c2cc(C#CC3CC3)cnc2O[C@@H]1CN(C)Cc1ccccc1C(=O)O	i	2	12	-0.2	2.4
C[C@H]1CN([C@@H](C)CO)C(=O)c2ccccc2-c2ccccc2CO[C@H]1CN(C)S(=O)(=O)c1cccs1	i	0	2	-0.2	-4.5
CC1(C(=O)NS(=O)(=O)c2cccc(F)c2)CCN1C(=O)C1(c2ccc(Cl)cc2)CCC1 (stereo not given)	i	-16*	11*	-1.8*	8.3
COc1ccc(C(=O)N(C)Cc2ccc(OC)c(OC)c2OC)cc1S(=O)(=O)N1CCOCC1	i	1	9	4.1	-3.8
CO[C@@H]1CN(C)C(=O)c2ccc(NC(=O)c3ccc(F)cc3)cc2OC[C@H](C)N(C(=O)c2ccc(F)cc2)C[C@H]1C	i	-6	-1	4.2	-0.4
C[C@@H]1CN([C@H](C)CO)C(=O)c2cc(NC(=O)c3ccncc3)ccc2O[C@@H]1CN(C)S(=O)(=O)c1cccs1	i	0	3	-0.4	-2.2
C[C@@H]1CN([C@H](C)CO)C(=O)c2cccc(NC(=O)c3ccc(-c4nccs4)cc3)c2O[C@@H]1CN(C)C(=O)Nc1cccc2ccccc12	i	1	-8	3.3	-2.6
Cc1ccc(-c2cnc3c(c2)C(=O)N([C@H](C)CO)C[C@H](C)[C@H](CN(C)CC2CCCC2)O3)cc1	i	3	11	-4.3	0.9
Cc1noc(C)c1NC(=O)Nc1ccc2c(c1)C(=O)N([C@H](C)CO)C[C@@H](C)[C@H](CN(C)CC1CC1)OCCCC[C@@H](C)O2	i	5	12	-2.4	-6.9
CC[C@]12c3[nH]c4cc(CCC(=O)N(C)C)ccc4c3CCN1C(=O)[C@@H](CC(=O)NCCc1ccccn1)C[C@@H]2C(=O)N1CCN(C(=O)c2ccco2)CC1	i	2	7	-1.3	-10
O=C(C[C@H]1C=C[C@H](NC(=O)C2CC2)[C@@H](CO)O1)NC1CCC1	i	0	0	-0.1	0.4
C[C@@H]1CN([C@H](C)CO)C(=O)c2cc(NC(=O)CCN3CCOCC3)ccc2O[C@H]1CN(C)C(=O)Nc1ccccc1	i	3	10	1.6	-2.4
CC(C)NC(=O)N(C)C[C@H]1Oc2cc(C#CC3CC3)ccc2S(=O)(=O)N([C@@H](C)CO)C[C@@H]1C	i	-1	-8	2.3	-4.2
COC(=O)[C@]12CCCCC=C1N(Cc1ccc3c(c1)OCO3)C(=O)[C@H](CC(=O)N1CCN(C(=O)C3CC3)CC1)C2	i	-6	-5	4.0	0.0
COc1ccc(S(=O)(=O)Nc2ccc3c(c2)C(=O)N([C@@H](C)CO)C[C@@H](C)[C@@H](CN(C)C(=O)Nc2ccc4c(c2)OCO4)OCCCC[C@H](C)O3)cc1	i	1	0	-1.0	1.8
Cc1ccc(C(=O)OCC(=O)c2ccc(Br)cc2)cc1S(=O)(=O)N1CCOCC1	i	-3	-7	5.8	-28
C[C@@H]1CN([C@H](C)CO)C(=O)c2cc(/C=C/c3ccccc3)cnc2O[C@H]1CN(C)C(=O)c1ccc2c(c1)OCO2	i	-10	-10	16	8.0
C[C@@H]1CN([C@H](C)CO)C(=O)c2cc(C3=CCCCC3)cnc2O[C@@H]1CN(C)Cc1cccc(F)c1	i	7	2	3.8	1.9
O=C(Nc1nccs1)[C@H]1[C@H](CO)[C@H]2Cn3c(ccc(-c4ccccc4)c3=O)[C@H]2N1CC1CCCC1	i	-16	-57	39	-2.1
C[C@@H]1CN([C@H](C)CO)S(=O)(=O)c2ccc(C#CC3CCCC3)cc2O[C@H]1CN(C)C(=O)Cc1ccccc1	i	-8&-2	-2&-7	-2.2&3.4	3.7&5.8&5.8
COc1ccc(S(=O)(=O)N2CCOCC2)cc1NC(=O)c1c(-c2ccccc2)noc1C	i	-14	-16	1.8	5.7
O=C(NC1CCCC1)[C@@H]1[C@@H](CO)[C@@H]2Cn3c(ccc(-c4cccc(F)c4)c3=O)[C@H]1N2	i	1	0	-0.5	-2.1
C[C@@H]1CCCCO[C@H](CN(C)C(=O)CCC(F)(F)F)[C@H](C)CN([C@@H](C)CO)C(=O)c2cc(NS(=O)(=O)c3cn(C)cn3)ccc2O1	i	-2	5	0.7	-3.5
CCOC(=O)C1(C(=O)OCC)COC(=O)C1CN1Cc2cc3ccccc3nc2C1 (stereo not given)	i	12	16	13	-2.2
Cc1cccc(S(=O)(=O)N2CCCCN3[C@H](CO)[C@H](c4ccc(C#CC(C)C)cc4)[C@@H]3C2)c1	i	-6	-8	-3.9	-9.5

Further compounds:
SMILES	FGF22 binding	Ecoli rRNA inh	Ecoli rRNA inh OD600	Ecoli rRNA inh RFP	MLL AF4-AF9 inh
O=C(C[C@H]1C[C@@H]2c3cc(NC(=O)C4CCOCC4)ccc3O[C@@H]2[C@H](CO)O1)NCc1ccccc1	i	1	-1	-0.6	-1.5
COc1ccc(/C=C/C(=O)Nc2cccc(S(=O)(=O)N3CCOCC3)c2)cc1OC	i	-4	1	-2.1	1.9
COc1ccc(S(=O)(=O)N2CCOCC2)cc1C(=O)Nc1cccc(C(=O)NC2CC2)c1	i	-4	-2	-4.4	-0.3
NS(=O)(=O)c1ccc(CCNC(=O)C2CCCN2C(=O)c2cccs2)cc1 (stereo not given)	i	6	16	-0.9	-4.8
C[C@H]1CN([C@@H](C)CO)C(=O)c2cc(C#CC3CC3)cnc2O[C@@H]1CN(C)C(=O)CC1CC1	i	0	10	3.2	-1.3
Cc1ccc(S(=O)(=O)N[C@H]2C=C[C@H](CC(=O)NC3CCCCC3)O[C@H]2CO)cc1	i	1	4	0.6	-1.2
CCCS(=O)(=O)NC(=O)C1(C)CCCN(C(=O)c2ccnc(Cl)c2)C1 (stereo not given)	i	5	11	1.0	1.5
COc1ccc(C(C)=NNS(=O)(=O)c2ccc(C)cc2)cc1OC	i	1	6	-0.6	-0.2
O=C(C[C@H]1CC[C@@H](NC(=O)Nc2cc(F)ccc2F)[C@H](CO)O1)NCCCN1CCOCC1	i	1	-4	-1.6	-1.1
C[C@@H]1CN([C@H](C)CO)C(=O)Cc2cc(NC(=O)CCC(F)(F)F)ccc2O[C@@H]1CN(C)Cc1ccccc1	i	2	1	1.9	-3.3
O=C(C[C@@H]1C[C@H]2c3cc(NC(=O)C4CCC4)ccc3O[C@H]2[C@H](CO)O1)NCc1ccccn1	i	1	16	1.9	-1.7
C[C@H]1CN([C@@H](C)CO)C(=O)c2cccc(NS(C)(=O)=O)c2O[C@H]1CN(C)Cc1ccc(Cl)c(Cl)c1	i	-9	-18	0.3	-0.4
COc1cccc(-c2cccc(-c3nc(C(=O)O)cc4c3[C@H](CCO)N(S(=O)C(C)(C)C)C4)c2)c1 (stereo not given in full)	i	-2	-2	-2.5	-6.5
C[C@H](CO)N1C[C@H](C)[C@H](CN(C)S(=O)(=O)c2ccc(F)cc2)Oc2ncc(C#CCN(C)C)cc2C1=O	i	5	4	-0.5	-2.5
C[C@@H]1CN([C@@H](C)CO)C(=O)c2cc(C#Cc3cccnc3)cnc2O[C@@H]1CN(C)C(=O)CC1CC1	i	-1	11	-1.8	-2.1
Brc1ccc2nc(C3CCCCC3)c(Cc3ccsc3)n2c1	i	-36	-70	-7.7	5.4
CCOC(=O)[C@]12CCCC=C1N(Cc1ccccc1)C(=O)[C@H](CC(=O)NCc1ccccc1)C2	nt	-17	-23	0.4	-0.9
CC1(Cc2cccc(C#N)c2)C(=O)Nc2c(Cl)cccc21 (stereo not given)	i	-5	1	-0.5	-1.0
O=C(OCCOc1ccccc1)c1cc(S(=O)(=O)N2CCOCC2)c(Cl)cc1Cl	i	-8	-15	-2.3	-1.6
O=C(Cc1ccccn1)N[C@H]1C=C[C@H](CC(=O)N2CCCCC2)O[C@H]1CO	i	-3	4	0.5	-0.2
